# NOMO-1 viab: NOMO-1 AML cell viability reduction, primary screen, STK33 inhibitor project, CellTiter-Glo luminescence. hit rate 7.5% among 37,000. NOMO-1 AML viability, 72 h. inhibition, % (no concentration beside the values);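 active = most replicates above 80%; inconclusive = exactly half above 80%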;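 note: wells of about 30 µL received 25 nL stock; 0% = median of vehicle wells and 100% = reference inhibitor level; the first replicate is given; inactives centre near 10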
# * = called active by the depositor; ? = inconclusive.
SMILES,NOMO-1 viab
C[C@]12CCC3c4ccc(OS(=O)(=O)O)cc4CCC3C1CC[C@H]2O (some centres not stated),-30
COc1ccc([N+](=O)[O-])cc1NC(=O)CN(c1ccccc1F)S(C)(=O)=O,14
C[C@@H]1CN([C@H](C)CO)C(=O)Cc2cc(NC(=O)NC3CCCCC3)ccc2O[C@H]1CN(C)C(=O)Nc1ccc(C(F)(F)F)cc1,-3
COc1ccc(NC(=O)N(C)C[C@H]2Oc3c(NS(=O)(=O)c4ccc(C)cc4)cccc3C(=O)N([C@H](C)CO)C[C@@H]2C)cc1,30
COc1ccc(C(=O)N(Cc2nc(-c3ccc(Cl)cc3)no2)C(C)C)cc1OC,12
COC(=O)c1ccc(NC(=O)CSc2nnc(C)n2-c2ccccc2)cc1,26
Cc1oc(C(=O)O)cc1COc1ccc2c3c(c(=O)oc2c1)CCCC3,-8
CC(Sc1nnc(N)s1)C(=O)Nc1ccc(Cl)cc1 (configuration not stated),4
COc1ccc(-c2nc3ccc4ccccc4c3c3c2CCC3)cc1,-5
COc1ccc(S(=O)(=O)N(C)C[C@H]2Oc3ccc(NC(=O)Nc4ccc5c(c4)OCO5)cc3CC(=O)N([C@H](C)CO)C[C@H]2C)cc1,35
C[C@H]1CN([C@@H](C)CO)C(=O)Cc2cc(NC(=O)C3CC3)ccc2O[C@H]1CN(C)Cc1ccc(-c2ccccc2)cc1,-12
C=CCc1cccc2cc(C(=O)NCCN3CCOCC3)c(=O)oc12,32
C[C@@H]1CN([C@@H](C)CO)C(=O)c2cccc(NC(=O)c3ccncc3)c2O[C@H]1CN(C)C(=O)Nc1ccc(F)cc1,-7
COc1cc(C(=O)OC[C@@]2(O)CO[C@H](OC3C(CO)OC(OC(C)/C=C/C4(O)C(C)CC(O)CC4(C)C)C(O)C3O)[C@@H]2O)cc(OC)c1O (some centres not stated),2
Cc1noc(C)c1NC(=O)N(C)C[C@H]1Oc2ccc(NS(=O)(=O)c3c(C)noc3C)cc2C(=O)N([C@@H](C)CO)C[C@@H]1C,8
Cc1cc(OC(=O)c2c(C)cc(O)cc2O)cc(O)c1C(=O)O,15
C[C@H](CO)N1C[C@H](C)[C@H](CN(C)Cc2ccc(C(=O)Nc3ccccc3N)cc2)Oc2ccc(NC(=O)CCN3CCOCC3)cc2CC1=O,138*
COc1ccc(Cl)cc1NC(=O)CSc1nnc(-c2cc3cc(Br)ccc3o2)n1C,77
Cc1ccc(N(C(C)C(=O)Nc2cc(Cl)cc(Cl)c2)S(C)(=O)=O)cc1 (configuration not stated),52
C[C@H]1CN([C@@H](C)CO)C(=O)c2cc(NS(C)(=O)=O)ccc2O[C@@H]1CN(C)Cc1ccc(Cl)c(Cl)c1,-11
CCOC(=O)c1sc2c(c1O)c(=O)n(-c1ccccc1)c(=S)n2-c1ccccc1,28
O=C1CCC(c2cccs2)=NN1CO,9
COc1ccc(Cl)cc1NC(=O)CSc1nc2ccccc2c(=O)[nH]1,2
C[C@@H]1CN([C@H](C)CO)C(=O)c2cccc(NC(=O)c3ccncc3)c2O[C@H]1CN(C)Cc1ccncc1,5
C[C@@H]1CN([C@@H](C)CO)C(=O)c2cccc(NS(C)(=O)=O)c2O[C@@H]1CN(C)C,-1
SMILES,NOMO-1 viab
COc1ccc(-c2cc(=O)c3cc(OCC(=O)Nc4ccc(C)cc4C)ccc3o2)cc1,36
C[C@H]1CN([C@@H](C)CO)C(=O)c2cc(NC(=O)Nc3ccc4c(c3)OCO4)ccc2O[C@H]1CN(C)CC1CCCCC1,12
C[C@@H]1CN([C@@H](C)CO)C(=O)c2cc(NS(=O)(=O)c3ccc(Cl)cc3)ccc2O[C@H]1CN(C)Cc1ccc(Cl)c(Cl)c1,119*
COc1ccc(NC(=O)CC2NCCNC2=O)cc1 (configuration not stated),7
COc1ccc(-c2cc(C(F)(F)F)n3nc(C(=O)NCCCN4CCOCC4)cc3n2)cc1,-21
C[C@H]1CN([C@@H](C)CO)C(=O)c2cccc(NS(=O)(=O)c3ccc(Cl)cc3)c2O[C@H]1CN(C)Cc1ccc(C(F)(F)F)cc1,42
S=C(NCc1ccco1)NCC1CC(c2ccccc2)=NO1 (configuration not stated),-43
C[C@H](CO)N1C[C@H](C)[C@@H](CN(C)Cc2ccc(C(=O)Nc3ccccc3N)cc2)Oc2ccc(NS(=O)(=O)c3ccc(F)cc3)cc2C1=O,48
COc1ccc(NC(=O)Nc2ccc3c(c2)CC(=O)N([C@H](C)CO)C[C@@H](C)[C@@H](CN(C)Cc2ccncc2)O3)cc1,-10
C[C@@H]1CCCCO[C@@H](CN(C)C(=O)c2ccccc2)[C@@H](C)CN([C@H](C)CO)C(=O)c2cc(NS(=O)(=O)c3ccc(Cl)cc3)ccc2O1,44
C[C@@H]1CN([C@@H](C)CO)C(=O)Cc2cc(NC(=O)Nc3ccc4c(c3)OCO4)ccc2O[C@@H]1CN(C)C(=O)Nc1cccc2ccccc12,18
O=C(CSc1n[nH]c(-c2ccncc2)n1)Nc1cccc(Cl)c1,1
CCn1c(SCC(=O)Nc2ccc(Br)c(C)c2C)nnc1-c1ccccc1C,22
O=c1cc(-c2ccc(O)cc2)oc2c(C3OCC(O)C(O)C3O)c(O)c(C3OC(CO)C(O)C(O)C3O)c(O)c12 (configuration not stated),1
COc1ccc(OCC(=O)Nc2ccc(NC(=O)c3ccccc3Cl)c(OC)c2)cc1,12
COc1ccc(NC(=O)NCc2ccccn2)cc1OC,17
Cc1noc(C)c1NC(=O)N(C)C[C@@H]1Oc2ccc(NC(=O)CCCN(C)C)cc2C(=O)N([C@H](C)CO)C[C@H]1C,3
C[C@@H]1CN([C@H](C)CO)C(=O)c2cc(NS(=O)(=O)c3ccc(Cl)cc3)ccc2O[C@@H]1CN(C)Cc1ccc(Oc2ccccc2)cc1,122*
C[C@@H]1CN([C@H](C)CO)C(=O)Cc2cc(N(C)C)ccc2O[C@@H]1CN(C)S(=O)(=O)c1ccc(Cl)cc1,6
C[C@@H]1CN([C@@H](C)CO)C(=O)c2cccc(NC(=O)Nc3ccc(C(F)(F)F)cc3)c2O[C@H]1CN(C)C(=O)NC1CCCCC1,73
C[C@H](CO)N1C[C@H](C)[C@H](CN(C)Cc2ccc(C(=O)O)cc2)Oc2ccc(NS(C)(=O)=O)cc2CC1=O,-14
CC1(C)CC(C)(O)P(=O)(c2ccccc2)O1 (configuration not stated),14
C[C@@H]1CN([C@H](C)CO)C(=O)Cc2cc(NS(=O)(=O)c3ccccc3)ccc2O[C@H]1CN(C)S(=O)(=O)c1cccs1,30
C[C@H]1CN([C@@H](C)CO)C(=O)c2cc(NC(=O)Cc3cn(C)c4ccccc34)ccc2O[C@@H]1CN(C)C(=O)Nc1ccccc1,8
O=C(COc1ccc(C(=O)Nc2ccc(F)cc2)cc1)Nc1cc(Cl)cc(Cl)c1,49
SMILES,NOMO-1 viab
C[C@H]1CN([C@@H](C)CO)C(=O)c2cc(N(C)C)ccc2O[C@@H]1CN(C)C,-16
O=c1cc(CSc2n[nH]c(-c3cccs3)n2)c2ccc(O)cc2o1,15
COC(=O)c1ccc(NC(=O)CNS(=O)(=O)c2c(C)cc(C)cc2C)cc1,6
O=c1[nH]c(C2=C(O)Cn3c2nc(=O)c2ccccc23)nc2ccccc12,1
COC(=O)CNC(=O)c1cn(-c2ccccc2)nc1-c1cc2ccccc2oc1=O,111*
O=S(=O)(c1ccc(Cl)cc1)N1CCc2ccccc21,120*
Cc1noc(C)c1NC(=O)N(C)C[C@@H]1Oc2c(NC(=O)c3cnccn3)cccc2C(=O)N([C@@H](C)CO)C[C@@H]1C,15
CC(C)NC(=O)Nc1ccc2c(c1)CC(=O)N([C@@H](C)CO)C[C@@H](C)[C@@H](CN(C)S(=O)(=O)c1ccc(F)cc1)O2,13
COc1ccc(CN(C)C[C@@H]2Oc3ccc(NS(=O)(=O)c4ccc(F)cc4)cc3CC(=O)N([C@H](C)CO)C[C@@H]2C)cc1,2
C[C@@H]1CN([C@H](C)CO)C(=O)c2cc(NC(=O)CCCCCC(=O)Nc3ccccc3N)ccc2O[C@H]1CN(C)S(C)(=O)=O,?
C[C@H]1CN([C@@H](C)CO)C(=O)c2cccc(NC(=O)C3CCOCC3)c2O[C@@H]1CN(C)S(=O)(=O)c1ccccc1,-10
C[C@@H]1CN([C@@H](C)CO)C(=O)c2cc(NS(=O)(=O)c3cccs3)ccc2O[C@@H]1CN(C)S(=O)(=O)c1ccc(Cl)cc1,7
C[C@H](CO)N1C[C@H](C)[C@H](CN(C)C(=O)Nc2cccc3ccccc23)Oc2c(NS(=O)(=O)c3cn(C)cn3)cccc2C1=O,-8
O=[N+]([O-])c1ccc(N2CCN(S(=O)(=O)c3ccc(F)cc3)CC2)cc1NCc1cccnc1,-8
O=C(CSc1nnc(-c2ccncc2)n1-c1ccc(F)cc1)Nc1ccc(Cl)cc1,20
C[C@@H]1CCCCO[C@@H](CN(C)CC2CC2)[C@@H](C)CN([C@H](C)CO)C(=O)c2cc(NC(=O)Nc3ccc4c(c3)OCO4)ccc2O1,20
C[C@H]1CN([C@@H](C)CO)C(=O)Cc2cc(NS(C)(=O)=O)ccc2O[C@H]1CN(C)CC1CCCCC1,-2
C[C@H]1CN([C@@H](C)CO)C(=O)c2cccc(NS(=O)(=O)c3ccc(F)cc3)c2O[C@H]1CN(C)S(=O)(=O)c1ccc(F)cc1,19
C[C@@H]1CN([C@@H](C)CO)C(=O)c2cc(NC(=O)C3CC3)ccc2O[C@@H]1CN(C)C(=O)Nc1ccc(C(F)(F)F)cc1,12
Cc1cccnc1NCC(O)COc1ccccc1 (configuration not stated),-12
C[C@@H]1CN([C@H](C)CO)C(=O)Cc2cc(NC(=O)Nc3cccc4ccccc34)ccc2O[C@H]1CN(C)Cc1ccc(Cl)c(Cl)c1,21
CCC(C)N1CCC2(CC1)N=c1c(c3c4c5c(C)c(O)c3c(O)c1=NC(=O)/C(C)=C\C=C[C@H](C)[C@H](O)[C@@H](C)[C@@H](O)[C@@H](C)[C@H](OC(C)=O)[C@H](C)[C@@H](OC)/C=C\O[C@@](C)(O5)C4=O)N2 (some centres not stated),27
COc1ccc(NC(=O)Cn2cc(C(=O)c3cccs3)c3ccccc32)cc1,22
C[C@H](CO)N1C[C@H](C)[C@H](CN(C)S(=O)(=O)c2ccccc2)Oc2c(NS(=O)(=O)c3ccc(Cl)cc3)cccc2C1=O,-5
Cc1ccc(S(=O)(=O)Nc2ccc3c(c2)CC(=O)N([C@@H](C)CO)C[C@@H](C)[C@@H](CN(C)CC2CCCCC2)O3)cc1,97*

# Ordered by heavy-atom count (smallest number first): 13 of the compounds above.
SMILES,NOMO-1 viab
O=c1cc(CSc2n[nH]c(-c3cccs3)n2)c2ccc(O)cc2o1,15
C[C@H]1CN([C@@H](C)CO)C(=O)c2cc(N(C)C)ccc2O[C@@H]1CN(C)C,-16
O=c1[nH]c(C2=C(O)Cn3c2nc(=O)c2ccccc23)nc2ccccc12,1
COC(=O)c1ccc(NC(=O)CNS(=O)(=O)c2c(C)cc(C)cc2C)cc1,6
COc1ccc(NC(=O)Cn2cc(C(=O)c3cccs3)c3ccccc32)cc1,22
O=C(CSc1nnc(-c2ccncc2)n1-c1ccc(F)cc1)Nc1ccc(Cl)cc1,20
O=[N+]([O-])c1ccc(N2CCN(S(=O)(=O)c3ccc(F)cc3)CC2)cc1NCc1cccnc1,-8
C[C@H]1CN([C@@H](C)CO)C(=O)Cc2cc(NS(C)(=O)=O)ccc2O[C@H]1CN(C)CC1CCCCC1,-2
C[C@H]1CN([C@@H](C)CO)C(=O)c2cccc(NC(=O)C3CCOCC3)c2O[C@@H]1CN(C)S(=O)(=O)c1ccccc1,-10
C[C@@H]1CN([C@@H](C)CO)C(=O)c2cc(NC(=O)C3CC3)ccc2O[C@@H]1CN(C)C(=O)Nc1ccc(C(F)(F)F)cc1,12
C[C@@H]1CN([C@H](C)CO)C(=O)c2cc(NC(=O)CCCCCC(=O)Nc3ccccc3N)ccc2O[C@H]1CN(C)S(C)(=O)=O,?
C[C@H](CO)N1C[C@H](C)[C@H](CN(C)C(=O)Nc2cccc3ccccc23)Oc2c(NS(=O)(=O)c3cn(C)cn3)cccc2C1=O,-8
C[C@@H]1CCCCO[C@@H](CN(C)CC2CC2)[C@@H](C)CN([C@H](C)CO)C(=O)c2cc(NC(=O)Nc3ccc4c(c3)OCO4)ccc2O1,20

# (listing goes on)
SMILES,NOMO-1 viab
CC(C(=O)Nc1sc2c(c1C#N)CCC2)n1cc([N+](=O)[O-])cn1 (configuration not stated),30
C[C@H](CO)N1C[C@H](C)[C@H](CN(C)CC2CCCCC2)Oc2ccc(NS(=O)(=O)c3ccc(Cl)cc3)cc2CC1=O,97*
C[C@H]1CN([C@@H](C)CO)C(=O)c2cc(NS(C)(=O)=O)ccc2O[C@H]1CN(C)S(=O)(=O)c1cccs1,15
Cc1ccc(S(=O)(=O)N(C)C[C@H]2Oc3ccc(NC(=O)Cc4ccccc4)cc3C(=O)N([C@H](C)CO)C[C@@H]2C)cc1,37
COc1ccc(S(=O)(=O)Nc2ccc3c(c2)C(=O)N([C@@H](C)CO)C[C@@H](C)[C@H](CN(C)Cc2ccc(C(F)(F)F)cc2)O3)cc1,113*
C[C@@H]1CN([C@@H](C)CO)C(=O)Cc2cc(NC(=O)Nc3ccc(C(F)(F)F)cc3)ccc2O[C@@H]1CN(C)S(=O)(=O)c1ccc(Cl)cc1,104*
C[C@H]1CN([C@@H](C)CO)C(=O)Cc2cc(NC(=O)Nc3ccccc3)ccc2O[C@H]1CN(C)S(C)(=O)=O,1
O=C(COc1ccccc1)Nc1nn[nH]n1,-7
O[C@@H]1[C@@H](O)C=C2CCN3Cc4cc5c(cc4[C@H]1C23)OCO5 (some centres not stated),114*
CCn1c(SCC(=O)Nc2ccccc2C)nnc1-c1ccco1,6
COc1cccc(NC(=O)CSc2nnc(C)n2-c2ccc(F)cc2)c1,11
C[C@H]1CN([C@@H](C)CO)C(=O)c2cccc(NS(=O)(=O)c3ccccc3)c2O[C@H]1CN(C)Cc1ccncc1,32
COc1ccc(S(=O)(=O)Nc2ccc3c(c2)CC(=O)N([C@@H](C)CO)C[C@@H](C)[C@@H](CN(C)Cc2ccc(Oc4ccccc4)cc2)O3)cc1,?
C[C@H]1CN([C@@H](C)CO)C(=O)Cc2cc(NC(=O)Cn3cnnn3)ccc2O[C@@H]1CN(C)Cc1ccccc1,-8
Cc1c(NC(=O)c2ncn[nH]2)cccc1-c1nc2cc(Cl)ccc2o1,29

# Some of the compounds tested; the hit share may differ from the screen's.
